# HNF4A DNA FP: change in binding of human HNF4 alpha to DNA; P41235; HNF4a-FITC DNA binding, fluorescence polarization, 1 h; activity change, % at 10 µM; 360,000 compounds, 0.3% hits; AID 1224865; in the data active = activity change above about 30%, passing the limit was not always enough;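 note: controls were the assay level and a saturating level of protein; the project sought stronger binding though the title names inhibitors; some compounds called inactive have numbers as strong as hits; positive values seem to mean higher polarization but the record does not say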
# Target sequence (P41235 whole entry, looked up): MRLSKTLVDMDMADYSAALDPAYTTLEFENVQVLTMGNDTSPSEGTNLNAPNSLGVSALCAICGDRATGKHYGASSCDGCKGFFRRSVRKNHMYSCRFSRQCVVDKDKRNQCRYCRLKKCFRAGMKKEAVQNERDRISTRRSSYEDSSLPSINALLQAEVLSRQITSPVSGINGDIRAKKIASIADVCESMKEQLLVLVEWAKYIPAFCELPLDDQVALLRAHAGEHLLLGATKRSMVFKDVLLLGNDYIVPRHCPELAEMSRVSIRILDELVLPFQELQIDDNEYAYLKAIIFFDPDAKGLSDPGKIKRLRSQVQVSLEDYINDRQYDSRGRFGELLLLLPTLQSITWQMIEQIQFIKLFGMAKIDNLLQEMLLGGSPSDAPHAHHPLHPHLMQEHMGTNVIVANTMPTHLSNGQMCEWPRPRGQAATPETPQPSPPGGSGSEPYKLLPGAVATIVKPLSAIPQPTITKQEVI
# Beta2AR agonist: activates human beta-2 adrenergic receptor causing internalization; Am2.2-beta2AR cells, FAP receptor internalization, flow cytometry; reference of the scale not given here; response, % (test concentration not listed); P07550; 340,000 compounds, 0.43% hits;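 active = response above a set limit, near 3 SD of response in nonfluorescent compounds, cut at about 42% in these data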;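 note: stock transfer was 100 nL into about 11 µL; a reference agonist was the positive control; negative values mostly stem from fluorescent compounds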
# Target sequence (P07550 whole entry, looked up): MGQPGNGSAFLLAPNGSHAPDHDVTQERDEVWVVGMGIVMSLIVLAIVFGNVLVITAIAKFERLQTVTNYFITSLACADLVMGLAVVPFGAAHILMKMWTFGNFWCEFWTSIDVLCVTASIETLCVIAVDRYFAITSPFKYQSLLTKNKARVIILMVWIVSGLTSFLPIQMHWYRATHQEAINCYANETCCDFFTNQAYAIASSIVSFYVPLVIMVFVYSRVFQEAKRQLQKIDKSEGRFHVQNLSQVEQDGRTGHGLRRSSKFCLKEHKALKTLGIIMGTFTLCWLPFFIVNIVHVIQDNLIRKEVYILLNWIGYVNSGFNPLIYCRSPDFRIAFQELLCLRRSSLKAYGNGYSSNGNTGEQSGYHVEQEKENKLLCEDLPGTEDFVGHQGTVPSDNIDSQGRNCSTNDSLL
# A1 inh: inhibitors of the anti-apoptotic protein A1, read as caspase activation; MEF A1-2A-BIM cells, Caspase-Glo 3/7 luminescence, 3 h; percent of clofoctol response, vehicle zero; caspase activation, % (concentration not given with the values); 330,000 compounds, 0.066% hits;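 active = over half of replicate activation scores above 10%, or exactly half above 10 with the replicate mean above 10; inconclusive = replicate mean below 10 yet half the replicates above 10; inactive = over half of replicates below 10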;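 note: wells of about 30 µL received 50 nL stock; many hits fall short of the cut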
# LANA-H2A inh: blocks KSHV LANA binding to histone H2A/H2B. Q9QR71. cell-free LANA-H2A/H2B peptide, fluorescence polarization. inhibition, % (concentration not given with the values). 320,000 compounds, 0.6% hits; in the data active = inhibition mostly above about 10%, no sharp cut-off; inactive = mostly below about 6.7%;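 note: stock transfer was 7.5 nL into about 10 µL; 0% = median of vehicle wells and 100% = median of positive control wells; one replicate is shown; the record names a cut of 25% in any replicate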
# Ecoli growth: E. coli growth inhibition | Escherichia coli growth, OD600, 23 h; hits give low values | OD600 absorbance (test concentration not listed) | 330,000 compounds, 0.21% hits;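 active = OD600 absorbance below the run mean of sample wells minus 3.6 SD, in any replicate, cut at about 0.56 in these data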;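 note: stock transfer was 300 nL into about 60 µL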
# Vif TR-FRET: HIV-1 Vif–A3G interaction blockers – biochemical, TR-FRET, GST-Vif 1-94, biotin-A3G peptide, dose response retest, primary screen (AID 1117319); inhibition, %; hits with a dose series show IC50 in µM; TR-FRET GST-Vif / biotin-A3G peptide binding; higher % means a stronger effect; test concentration not given here; strong numbers were not always called active; 260,000 compounds, 0.57% hits;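 active = above the screen mean plus three standard deviations and confirmed in dose response; inconclusive = results disagree or hit not tested in dose response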;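 note: Vif residues 1-94 fused to GST binding biotinylated APOBEC3G peptide 110-148; 0% = full assay without inhibitor and 100% = GST in place of GST-Vif; retest series ran down from 100 µM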
# UCH37 inh: inhibitors of human deubiquitinating enzyme UCH37. inhibition, % (concentration not given with the values). 330,000 compounds, 0.33% hits. purified proteasome/UCH37, Ub-AMC cleavage fluorescence;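 active = mean of two replicates above 20%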;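 note: 0% = compound-free wells with enzyme and 100% = wells lacking proteasome; stock transfer was 100 nL into about 20 µL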
#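 Test system – human UCH37 enzyme supplied as purified proteasome complex · Incubation – 30 min preincubation with enzyme, 25 min cleavage at room temperature · Detection – AMC fluorescence from Ub-AMC cleavage, excitation 355 nm, emission 460 nm · Benchmarks – no-proteasome wells (full inhibition) and compound-free wells (no inhibition)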
# The depositor's hits bear a star; ? = inconclusive; nt = not tested or not shown; & = joins results of further samples.
SMILES,HNF4A DNA FP,Beta2AR agonist,A1 inh,LANA-H2A inh,Ecoli growth,Vif TR-FRET,UCH37 inh
CCCCn1c(N)c(N(CCOC)C(=O)CCNC(=O)c2ccc(Cl)cc2)c(=O)[nH]c1=O,-0.1,-2.0,0.9,-3.2,0.676,-9.6%,1.6
COc1cccc(/C=N/n2c(SC)nnc2-c2ccccc2)c1O,2.8,-5.7,0.5,-1.0,nt,-4.2%,nt
COc1ccc(CNc2nc3ccccc3n2CCN2CCCCC2)c(OC)c1,3.4,-5.3,0.3,-5.2,0.625,3.0%,-0.8
Cc1cnnc2c1-c1no[n+]([O-])c1CC2,3.5,4.0,0.2,3.1,0.672,12.7%,3.6
CCOc1ccc(CN(C(=O)c2cc3ccccc3oc2=O)C2CC2)cc1,-1.5,-0.7,0.2,-3.6,0.684,-11.0%,3.5
COc1cccc(C2=CC(=O)CCC2)c1OC,-1.7,2.5,0.2,-5.9,0.708,nt,3.4
CN1C(=O)c2ccc(NC(=O)c3ccc(Cl)cc3Cl)cc2C1=O,0.7,-3.0,-1.1,-6.0,0.677,nt,-69.7
O=C(O)CC/C(=N/NC(=O)c1ccc(-c2ccccc2)cc1)c1ccccc1,0.7,2.9,0.4,-13.8,nt,nt,nt
CC(=O)Nc1ccccc1NC(=O)c1ccccc1-c1ccccc1,2.4,-5.6,0.2,0.0,0.596,nt,2.6
COc1cccc(/C=C/C(=O)OCC(=O)N2c3ccccc3NC(=O)C2(C)C)c1,4.5,-7.6,-1.1,0.6,0.74,nt,-4.5
CNC(=O)C12CC3CC(CC(Cl)(C3)C1)C2,1.9,-1.9,0.1,7.6,0.637,-8.0%,2.1
C#Cc1ccc(CN2CCC(C(=O)Nc3ccc(Oc4ccccc4)nc3)CC2)cc1,2.1,4.0,-1.1,-1.5,0.66,-3.0%,0.8
CN(C)c1ccc(-n2cccc2)cc1,2.3,4.7,-1.0,3.7,0.701,-0.1%,3.8
Cc1ccccc1C(=O)NNC(=O)CCC(=O)Nc1cccc(Cl)c1C,1.6,7.9,-0.3,-5.6,0.686,nt,3.9
CC(NC(=O)C1=CC=CN2CCS(=O)(=O)N=C12)c1ccc(Cl)cc1Cl (stereo not given),0.1,-4.1,nt,nt,0.703,-18.2%,-95.5
O=C(/C=C/c1ccc([N+](=O)[O-])cc1)NCc1cccnc1,-2.8,-6.2,-0.5,-1.2,0.699,24.6%,3.6
Cc1ccccc1-n1nc(C)c2cc(C(=O)N3CCN(S(=O)(=O)c4ccc(F)cc4)CC3)sc21,-24.7,8.7,-0.1,2.9,0.739,-1.4%,2.4
CCOc1ccccc1-n1c(SCC(=O)N2CCCC2)nnc1-c1ccc(O)cc1,6.5,-17.6,1.2,-3.0,0.705,1.4%,3.2
COCCNC(=O)C(c1ccc(C)cc1)N(C(=O)CCC(=O)Nc1ccccn1)c1ccc(F)cc1 (stereo not given),1.3,-17.8,-0.4,2.0,0.694,-3.8%,2.5
CC(=O)NC(CC(=O)N(C)Cc1c(F)cccc1Cl)c1ccccc1 (stereo not given),-4.1,6.9,0.2,3.6,0.692,5.7%,3.2
CCc1ccccc1NC(=O)[C@@H]1CCC(=O)N1C1OC(=O)c2ccccc21 (stereo not given in full),3.5,-0.8,0.2,8.6,0.74,nt,-1.9
Cc1cc(NC(=O)Nc2ccc3c(ccn3C)c2)sn1,5.1,-0.8,-2.0,-1.0,0.59,nt,-0.7
O=C(Cn1cnc2ccccc2c1=O)N1CCc2ccccc2C1,-5.4,5.2,0.6,1.5,0.638,-5.2%,-1.7
COc1ccc(/C=N/NC(=O)c2cccnc2)cc1CN1CCCc2ccccc21,0.6,5.8,0.8,nt,nt,nt,nt
COc1ccc(NC(=O)C2=C(C)NC(=O)NC2c2cccs2)c(OC)c1 (stereo not given),0.6,-6.2,0.0,0.8,0.632,5.5%,3.5
SMILES,HNF4A DNA FP,Beta2AR agonist,A1 inh,LANA-H2A inh,Ecoli growth,Vif TR-FRET,UCH37 inh
CCn1c(Cc2ccccc2)nnc1SCC(=O)Nc1cc(C)on1,1.3,1.0,0.6,-2.0,0.724,-0.7%,1.4
CCN(C(=O)COC(=O)c1n[nH]c2ccccc12)C1CCS(=O)(=O)C1 (stereo not given),-0.5,-4.5,0.2,0.3,0.688,20.1%,4.6
C=C(C)CN1CCN(S(=O)(=O)c2ccc(C)c(N(C)S(=O)(=O)c3ccc(C)cc3)c2C)CC1,-0.9,-0.6,-0.2,-2.3,0.694,nt,-1.3
Cc1cc(S(=O)(=O)NCc2ccco2)c(C)s1,-0.3,-0.4,-0.1,-0.5,0.711,-2.2%,2.1
COc1ccc(NC(=O)CN2CCN(c3ccccc3)CC2)cc1,-2.2,-3.3,0.1,-0.2,0.679,0.5%,5.8
Nc1nc(-c2cccnc2)nn1S(=O)(=O)c1ccccc1,-0.8,5.1,0.8,4.8,0.672,-2.4%,2.4
Cc1ccc(NC(=O)C(C)Sc2nc(-c3ccccc3)cc(=O)[nH]2)cc1 (stereo not given),1.9,4.7,2.0,3.9,0.664,-0.8%,-0.3
CCC(=O)N1CCc2cc(S(=O)(=O)N3CCc4ccccc4C3)ccc21,-0.2,-16.7,0.0,-6.4,0.778,?,5.0
Cc1nnc(C)c2c(C)n(-c3ccc(Cl)c(N)c3)c(C)c12,3.5,22.5,-0.5,0.1,0.673,0.5%,-13.3
CCOc1ccccc1OCCCC(=O)N1CCN(S(=O)(=O)c2ccc(Cl)cc2)CC1,-1.4,-4.8,1.3,-1.1,0.682,-5.2%,4.6
CC(C)(C)NC(=O)Cn1nnc(-c2ccc(OCc3c(F)cccc3Cl)cc2)n1,-3.3,1.3,-1.1,3.3,0.716,nt,4.5
COc1ccccc1-c1c(-c2ccc(O)cc2O)n[nH]c1C(F)(F)F,-4.5,1.1,-0.8,-0.7,0.672,9.7%,0.1
O=C1C(Cc2ccccc2)Nc2ncnc(N3CCOCC3)c2N1Cc1ccc(Cl)cc1 (stereo not given),3.3&5.3,-4.8,1.9,-5.2,0.794,nt,4.5
O=C(CSc1oc(-c2ccc(F)cc2)nc1S(=O)(=O)c1ccccc1)NCC1CCCO1 (stereo not given),0.9,-0.8,0.3,0.5,0.682,5.7%,3.3
COc1ccc(C2CC2/C(=N/OC(=O)c2cccs2)c2ccccc2)cc1 (stereo not given),-0.9,5.6,-0.4,1.1,nt,-1.9%,nt
Cc1c(N2C(=O)/C(=C3\C(=O)N(CC(=O)O)c4ccccc43)SC2=S)c(=O)n(-c2ccccc2)n1C,3.0,6.7,1.1,22.4*,0.682,nt,2.5
O=C(Cc1ccc(Cl)c(Cl)c1)Nc1ccccc1N1CCOCC1,-1.3,-8.4,0.5,-5.2,0.636,12.5%,2.8
Cc1ccc(C(C#N)N2CCOCC2)cc1 (stereo not given),4.8,-0.2,nt,nt,0.652,-2.6%,4.6
COc1ccc(C2=NN(CCC(=O)NCC3CCCO3)C(=O)CC2)cc1 (stereo not given),4.5,1.3,-0.6,-0.7,0.652,nt,1.6
CCN1C(=O)c2cccc3c(S(=O)(=O)NCc4ccccc4)ccc1c23,1.4,-22.4,-0.4,-0.3,0.69,-3.2%,-117.5
CCOc1ccc(S(=O)(=O)N2CCN(C(=O)c3sccc3C)CC2)cc1,-1.0,-14.1,-0.7,5.1,0.718,-4.7%,-0.4
Cc1cccc(NC(=O)CSCc2cc(=O)n3c(C)csc3n2)c1C,-1.7,2.9,0.0,0.8,0.672,nt,1.3
O=[n+]1cc(-c2ccccc2)n([O-])c2c1CCC2,-1.1,6.2,0.4,2.9,0.719,?,2.6
NC(=O)c1ccc[n+](CC(=O)c2ccc(Cl)c(Cl)c2)c1,-1.7,3.2,-0.3,2.6,0.685,-4.0%,0.8
CCOc1cc([C@@H]2C[C@H]3CN(c4ccccc4)C(=O)[C@]34CCCN24)ccc1OC,9.0,6.9,0.2,-0.3,0.683,7.5%,-3.0

# Part of the list above, showing only Beta2AR agonist:
compound	Beta2AR agonist
O=[n+]1cc(-c2ccccc2)n([O-])c2c1CCC2	6.2
Cc1cccc(NC(=O)CSCc2cc(=O)n3c(C)csc3n2)c1C	2.9
CCOc1cc([C@@H]2C[C@H]3CN(c4ccccc4)C(=O)[C@]34CCCN24)ccc1OC	6.9

# Carrying on:
SMILES,HNF4A DNA FP,Beta2AR agonist,A1 inh,LANA-H2A inh,Ecoli growth,Vif TR-FRET,UCH37 inh
Cc1ccc2[nH]cc(CCNC(=O)C3CCCCC3)c2c1,6.2,-1.0,0.3,-6.7,0.657,7.0%,5.2
Cn1c(-c2ccc(=O)[nH]c2)nc2ccccc21,1.6,-2.3,-0.1,-0.2,0.691,0.3%,-7.6
CCOc1ccc2oc(C(=O)OCC(=O)N(CC(C)C)c3c(N)n(Cc4ccccc4)c(=O)[nH]c3=O)c(C)c2c1,6.2,10.5,nt,nt,0.72,nt,-24.9
O=C(COC(=O)Cc1ccc(Cl)cc1)NC1CCCC1,3.4,-5.5,-0.5,nt,0.665,-8.7%,-1.1
COc1cccc(CCc2nnc(CCC(=O)N(C)C3CC(C)(C)NC(C)(C)C3)o2)c1,1.1,4.1,-1.0,1.1,0.659,nt,-1.6
CC(C)Oc1ccc(C(=O)NCc2cccnc2)cc1,-0.4,10.3,-0.1,1.8,0.668,-4.5%,1.9
COc1ccc(/C=N/NC2=NS(=O)(=O)c3ccccc32)cc1OC(C)=O,-1.9,14.4,0.9,-80.1,nt,-4.7%,nt
COc1ccc(NC(=O)CN2CCC(C(=O)c3ccc(F)cc3)CC2)c(OC)c1,-3.9,-2.8,0.0,-1.7,0.67,nt,0.5
O=C(N/N=C/c1c(F)cccc1Cl)c1cc(C2CC2)[nH]n1,2.0,0.6,-0.9,3.6,nt,nt,nt
CN(Cc1ccccc1)C(=O)c1cccc(NC(=O)Cc2ccc(NC(=O)C3CCN(C(=O)C4CCC4)CC3)cc2)c1,1.9,7.0,nt,nt,0.693,1.1%,4.9
Nc1nc(N)nc(-c2ccc(Cl)c(Cl)c2)n1,4.4,-0.7,-5.1,-5.3,0.615,nt,-337.6
COc1cc(/C=N/NC(=O)COc2ccc([N+](=O)[O-])cc2)ccc1OCC(=O)N1CCOCC1,0.0,-1.3,0.0,1.1,nt,nt,nt
Cc1ccc(NC(=O)CN2C(=O)CNC2=O)cc1,-0.2,-2.8,1.3,-3.5,0.662,-6.6%,2.6
CN(CC(=O)Nc1nc2ccccc2s1)S(=O)(=O)c1ccccc1,3.0,-3.1,-1.1,-5.7,0.814,-6.8%,-1.0
COc1ccccc1C(=O)Nc1nnc(-c2ccc(Cl)cc2)o1,4.9,-19.6,-0.4,4.5,0.723,nt,2.8
CCn1c(SCC(=O)N2CCN(c3ccccc3)CC2)nc2c(c1=O)SC(C)C2 (stereo not given),-3.0,11.2,0.7,-3.8,0.76,29.5%,6.3
Cc1coc2cc3oc(=O)c(CC(=O)N[C@@H](CC(C)C)C(=O)O)c(C)c3cc12,0.2,-8.3,-1.8,6.6,0.716,-7.3%,-89.6
Cc1ccccc1OCC(=O)Nc1nnc(S(=O)(=O)N2CCCC2)s1,-0.9,-1.7,-0.9,1.0,0.771,nt,4.9
O=C(CCSc1ccccc1)Nc1ccc(S(=O)(=O)Nc2ncccn2)cc1,-1.7,4.6,-2.7,1.1,0.678,-3.0%,4.2
COc1ccc(NC(=O)C2CCCCN2N)cc1OC (stereo not given),3.8,8.5,-0.3,1.8,0.679,10.0%,29.2*
CCC(=O)Oc1ccc2c(=O)c(-c3ccc4ccccc4n3)c(CC)oc2c1C,0.3,10.9,0.7,-0.5,0.731,nt,4.8
COC(=O)C1=C(C)NC(=O)CC1c1ccccc1OC (stereo not given),-2.6,1.0,-0.6,-3.5,0.689,-8.8%,-1.7
